Source: PubChem
AID923 = qHTS Assay for Allosteric/Competitive Inhibitors of Caspase-1: Spectroscopic Profiling in AFC Spectral Region | compound fluorescence, AFC spectral region (405/520 nm); almost no hit is shown here | Potency, µM (highest dose often 57.5 µM), without a hit: top-dose fluorescence increase, hits mostly activators | 1.1% of 75,000 active; active = well fitted activation curve with a large enough effect; inconclusive = small, poorly fitted or top-dose-only effect;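 also: potency is read from the fitted curve at half-maximal effect; 0% is about no effect; scaled to a free AFC standard on each plate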
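Titrations up to 57 uM read every 20 sec for 3 min (405/520 nm) with 50 nM caspase 1 and 5 uM Ac-WEHD-AFC, pH 7.5 HEPES buffer. Fluorescence-vs-time intercept gave baseline, scaled against on-plate AFC standard.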
Resorufin fluor = resorufin region autofluorescence; Compound fluorescence, resorufin region 547/598 nm, buffer; active compounds read high; max dye-equivalent concentration, M; 0.04% of 59,000 active; AID 588; active = above 10 nM dye equivalent; inconclusive = 1 to 10 nM; inactive = 1 nM or less; a few of its hits are not listed in these tables; also: highest value over a series up to 38 µM
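Read-out: intrinsic compound fluorescence at ex 547/em 598 nm after 15 min at RT in pH 8.0 Tris (100 mM). Values expressed as resorufin-equivalent concentration from per-plate standard series.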
TSHR ag = activates the human thyroid stimulating hormone receptor. P16473. HEK293-CNG-TSHR cells (CNG channel as cAMP sensor), membrane potential dye, cAMP. Potency, µM (highest dose often 57.1 µM), for inactives: top-dose activation, most hits filed as activators. 0.48% of 73,000 active. AID 926; active = well fitted activation curve of enough size with the parental cells flat; inconclusive = any curve in the parental cells; inactive = parental cells flat and receptor cells flat or falling; also: potency is read from the fitted curve at half-maximal effect; % of control where 0% means no effect; weak receptor curves with flat parental cells got no call and are not listed
Target sequence (P16473 whole entry, looked up): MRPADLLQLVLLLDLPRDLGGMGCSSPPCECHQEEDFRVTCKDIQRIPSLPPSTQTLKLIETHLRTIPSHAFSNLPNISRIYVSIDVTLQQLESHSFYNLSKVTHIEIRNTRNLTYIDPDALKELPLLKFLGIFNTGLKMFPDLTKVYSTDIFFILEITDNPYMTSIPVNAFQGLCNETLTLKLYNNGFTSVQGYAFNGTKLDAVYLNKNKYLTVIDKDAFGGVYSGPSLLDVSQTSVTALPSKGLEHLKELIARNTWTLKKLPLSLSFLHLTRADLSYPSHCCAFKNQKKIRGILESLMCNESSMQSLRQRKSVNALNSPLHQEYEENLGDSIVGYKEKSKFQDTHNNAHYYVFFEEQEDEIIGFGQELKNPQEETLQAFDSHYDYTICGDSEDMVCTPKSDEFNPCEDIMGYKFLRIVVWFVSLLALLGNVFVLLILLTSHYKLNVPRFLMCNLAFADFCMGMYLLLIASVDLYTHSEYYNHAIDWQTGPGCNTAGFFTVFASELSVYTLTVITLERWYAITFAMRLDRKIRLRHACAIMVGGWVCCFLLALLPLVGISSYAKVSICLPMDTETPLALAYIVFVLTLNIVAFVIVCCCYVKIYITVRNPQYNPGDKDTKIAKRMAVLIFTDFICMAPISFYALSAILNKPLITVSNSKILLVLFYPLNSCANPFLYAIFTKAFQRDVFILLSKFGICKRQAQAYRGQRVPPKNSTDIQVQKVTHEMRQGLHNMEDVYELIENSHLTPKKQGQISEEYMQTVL
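cAMP rise detected as CNG-channel membrane depolarization by fluorescent dye (emission 590 nm), 30 min after compound, following 60 min dye loading containing 100 uM RO 20-1724 at room temperature. Cells: TSHR/CNG HEK 293, with parental CNG HEK 293 as control.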
A488 autofl = compound fluoresces in the A488 spectral region; compound autofluorescence, A488 spectral region, dye equivalency; active compounds read high; 0.1% of 59,000 active; max dye equivalency, M; AID 591; active = above 10 nM dye equivalent; inconclusive = 1 to 10 nM; inactive = 1 nM or less; about half of its hits are not listed in these tables;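 also: highest value over a series up to 38 µM; compound alone in buffer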
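Read-out: relative fluorescence at 480/540 nm, expressed as Alexa 488 dye-equivalent concentration from a six-point A488 standard included per plate. Conditions: 100 mM Tris, pH 8.0; 15 min incubation, room temperature.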
A647 autofl = compound autofluorescence in A647 spectral region; Compound fluorescence, A647 channel (570/671 nm), Tris buffer; max dye-equivalent concentration, M; AID 592; 59,000 tested, under 10 active; active means above 1 µM dye equivalent; inconclusive means 0.1 to 1 µM; inactive means 0.1 µM or less;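 also: values scaled relative to a standard on each plate; highest value over a series up to 38 µM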
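Compounds pinned into 100 mM Tris pH 8.0, 15 min at room temperature, then read with 570 nm excitation/671 nm emission filters. Fluorescence normalized to an on-plate six-point Alexa 647 standard curve, giving dye-equivalent concentration per compound concentration.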
* = called active by the depositor; i = inactive; ? = inconclusive; / = no result given; [ ] = dose if it differs, or a comment. An excerpt; rates above refer to the full screens.

A first look:
SMILES	AID923	Resorufin fluor	TSHR ag	A488 autofl	A647 autofl
COCCNc1ncnc2ccc(-c3ccccc3CN(C)C)cc12	3.5%	i	8.2%	i	1e-09
Cc1ccc2[nH]c(=O)c(CN(CCCO)S(=O)(=O)c3cccc4nsnc34)cc2c1	1.0%	i	-2.1%	i	2.7e-09

The list itself, from the start:
SMILES	AID923	Resorufin fluor	TSHR ag	A488 autofl	A647 autofl
COCCNc1ncnc2ccc(-c3ccccc3CN(C)C)cc12	3.5%	i	8.2%	i	1e-09
Cc1ccc2[nH]c(=O)c(CN(CCCO)S(=O)(=O)c3cccc4nsnc34)cc2c1	1.0%	i	-2.1%	i	2.7e-09
O=C(NCCN1CCOCC1)Nc1ccc(Cl)cc1	-0.6%	i	-2.4%	i	2.3e-09
COc1ccc(F)cc1S(=O)(=O)NC1CCCCCC1	2.6%	i	-14.4%	i	6.1e-09
CCOC(=O)N1CCC(NS(=O)(=O)c2cc3c(cc2C)NC(=O)CO3)CC1	2.2%	i	4.3%	i	1.25e-08
CCn1c(-c2cccc(Br)c2)n[nH]c1=S	1.3%	i	23.3%	i	1e-09
COc1ccccc1N1CCN(C(=O)c2ccc(N3CCCC3=O)cc2)CC1	-2.8%	i	-2.7%	i	3.8e-09
CCN1C(=O)[C@H]2[C@H]3[C@H](O)[C@H](O)C/C(=N/OCC(C)C)[C@H]3CC[C@@H]2C1=O	-0.9%[11.5 µM]	/	3.8%[11.4 µM]	/	/
COc1cccc(-c2cncnc2NCCc2cnc[nH]2)c1	-1.5%	i	0.2%	i	5.8e-09
Nc1nnnn1/N=C/c1cccs1	/	i	/	i	5.25e-08
COc1ccc(-c2nc3cnc(N4CCOCC4)nc3n(C)c2=O)cc1	-0.8%	i	4.9%	i	1e-09
CSc1cccc(NC(=O)c2nnn(Cc3ccccc3)c2N)c1	1.5%	i	2.0%[11.4 µM]	i	2.96e-08
O=C(CSc1nc2c([nH]c3ccccc32)c(=O)n1-c1ccccc1)N1CCOCC1	-1.5%	/	4.4%	/	/
CCOC(=O)c1sc(-c2ccccc2)cc1NC(=O)CSc1nnnn1C	1.2%	i	?	i	1e-09
Cc1ccc(CN2C(=O)/C(=C3\SC(N4CCOCC4)=NC3=O)c3cc(Br)ccc32)cc1	-0.8%	/	-3.9%	/	/
O=C(Cn1cnc2c(nnn2-c2ccccc2)c1=O)NCc1ccco1	1.5%	/	?	/	/
CCN(CCO)C(=O)CC(c1ccccc1)c1cc(Br)ccc1O (stereo not given)	0.6%	i	-5.8%	i	2.4e-09
O=P(CO)(Cc1ccccc1)Cc1ccccc1	2.7%	/	-1.2%	/	/
CCOc1ccc(S(=O)(=O)N(CC(=O)Nc2cc(C)on2)Cc2ccccc2Cl)cc1	-1.1%	i	?	i	2.9e-09
CC(O)CNc1nc2ccccc2n1-c1ncnc2sc3c(c12)CCC3 (stereo not given)	-1.9%	i	?	i	1e-09
O=C(Nc1sc2c(c1C(=O)NC1CC1)CCCCCC2)c1ccco1	1.3%	i	14.2%	i	2.06e-08
NC(=NC(=O)c1ccccc1)C1=C(O)CCC1=O	-0.3%	i	1.7%	i	2.94e-08
Cc1nc(NCc2ccccc2)c2nc(-c3ccccc3)n(CCCN3CCCCC3C)c2n1 (stereo not given)	-0.1%	/	-18.3%	/	/
CCOC(=O)c1ccccc1NC(=O)CN(c1ccccc1OC)S(C)(=O)=O	2.8%	/	20.2%[11.4 µM]	/	/
CC1=C(C#N)C(NC(=O)c2ccco2)(C(F)(F)F)C(=O)N1 (stereo not given)	1.8%	i	-4.5%	i	4.4e-08

Further entries.
SMILES	AID923	Resorufin fluor	TSHR ag	A488 autofl	A647 autofl
O=C(CN1CCC2(CC1)OCCO2)c1c[nH]c2ccccc12	3.4%	i	0.1%	i	2.6e-09
O=C(c1cc2ccccc2oc1=O)N1CCCC1	-1.4%	i	7.2%	i	6.6e-09
Cc1ccccc1S(=O)(=O)Cc1ccc(C(=O)N2CCN(c3cccc(C)c3C)CC2)o1	-0.1%	i	?	i	2.23e-08
O=C(COc1ccc(F)cc1)NCC1CCCO1 (stereo not given)	1.1%	i	-12.6%	i	1.8e-09
CCOc1ccc(C(=O)CN2CCN(S(=O)(=O)c3ccc(F)cc3)CC2)cc1	0.6%	i	?	i	2.44e-08
CCCCn1c(NCc2ccccc2O)nc2ccccc21	0.4%	/	23.8%	/	/
COc1ccc(CCNC2=NCCS2)cc1	-0.3%	i	?	i	2.1e-09
CC(OC(=O)c1cc2sccc2n1C)C(=O)NCCc1ccccc1 (stereo not given)	-0.3%	i	21.9%	i	4.47e-08
O[Si@](CCCN1CCCCC1)(c1ccc(F)cc1)C1CCCCC1	1.9%	i	?	i	3.37e-08
O=C(O)c1ccc(S(=O)(=O)Nc2ccc(F)c(Cl)c2)cc1	-1.2%	i	20.7%	i	1e-09
CC1(C)Cc2c(C#N)c(SCCOc3ccccc3)nc(N3CCOCC3)c2CO1	/	i	/	i	1e-09
c1ccc(-n2nnnc2SCCCSc2nc3ccccc3s2)cc1	2.2%	i	?	i	4e-09
CN(c1ccc(C(=O)Nc2ccccc2C(=O)N2CCCC2)cc1)S(C)(=O)=O	0.8%	i	3.6%	i	5.9e-09
CCCC12CN3CC(C)(CN(C1)C31C(=O)Nc3ccc(C)cc31)C2=O (stereo not given)	1.8%	i	14.3%	i	1e-09
COc1ccccc1C(=O)NCC(=O)Nc1ccccc1	2.1%	i	-5.5%	i	1.7e-09
O=C(C1CCN(S(=O)(=O)N2CCC3(CC2)OCCO3)CC1)N1CCc2ccccc2C1	-1.3%	i	15.8%	i	1.19e-08
O=C(Nc1ccc2c(c1)OCCO2)c1cncc(Br)c1	0.1%	i	-1.9%	i	1e-09
COCCn1c(=O)c(-c2ccc(F)cc2)nc2cnc(OCc3ccccc3)nc21	20.4%	i	16.6%	i	3.36e-08
CCOC(=O)c1[nH]c2ccc(OC)cc2c1NC(=O)N1CCOCC1	0.8%	i	0.4%	i	3.07e-08
COc1cccc(C2=NOC(C(=O)NCc3ccco3)C2)c1 (stereo not given)	-0.8%	i	?	i	7.7e-09
COC(=O)c1cc(=O)nc2sccn12	0.4%	i	12.8%	i	2.1e-09
O=C(CC(=O)c1ccccc1)Nc1ccc2c(c1)OCCO2	-0.4%	i	-0.7%[11.4 µM]	i	5.5e-09
Cc1cc(C)n(-c2nc3c(c(=O)[nH]c(=O)n3C)n2Cc2ccccc2)n1	1.4%	i	5.3%	i	1e-09
COC(=O)CSc1nnc(-c2ccco2)n1Cc1ccco1	-1.7%	i	4.7%	i	2.2e-09
Cn1c(=O)[nH]c(=O)c2c1nc(N1CCN(c3cccc(Cl)c3)CC1)n2CCCc1ccccc1	/	i	/	i	8.35e-08

New compounds follow:
SMILES	AID923	Resorufin fluor	TSHR ag	A488 autofl	A647 autofl
COc1ccccc1N1CCN(C(=O)c2ccncc2)CC1	-1.5%	i	-5.5%	i	1.93e-08
CCOC(=O)c1ccc(CC2S/C(=C(\C#N)C(C)=O)NC2=O)cc1 (stereo not given)	/	i	/	i	1.33e-08
O=C(Nc1cccc(-c2nc3ccccc3[nH]2)c1)c1ccco1	1.3%	i	9.3%	i	1e-09
Cc1ccc(C)c(N2CCN(C(=O)C3CCN(c4nc(C)cc(C)n4)CC3)CC2)c1	3.0%	i	6.2%	i	2.2e-09
CCN(CCNC(=O)CC1Oc2ccccc2NC1=O)c1ccccc1 (stereo not given)	-0.8%	/	-3.0%	/	/
COc1ncc2nc(C)c(=O)n(Cc3ccc(F)cc3)c2n1	2.8%	i	?	i	7.1e-09
Cn1c(C(=O)N2CCC(C(=O)N3CCOCC3)CC2)cc2sccc21	-1.1%	/	?	/	/
O=C(O)c1nn(-c2ccc(Cl)cc2)ccc1=O	-1.0%	i	3.2%	i	1.64e-08
CC(=O)c1cccc(NC(=O)CN(c2ccccc2)S(C)(=O)=O)c1	-0.5%	i	?	i	5.2e-09
CC1Cc2ccccc2N1C(=O)CSc1nnc(-c2ccc(S(=O)(=O)N3CCCCC3)cc2)o1 (stereo not given)	-0.5%	i	8.1%	i	4.2e-09
CCC1CCCCN1CCCNC(=O)c1cn(CC(C)C)c(=O)c2cc(OC)c(OC)cc12 (stereo not given)	1.4%	i	0.9%	i	2.99e-08
COc1ccc(C2c3c(oc4ccccc4c3=O)C(=O)N2c2ccc(C)cn2)cc1OC (stereo not given)	-0.4%	/	-15.3%	/	/
Cc1cccc(N(CC(=O)NC2CCCC2)C(=O)CS(=O)CC(=O)Nc2ccc3c(c2)OCO3)c1 (stereo not given)	-0.5%	i	1.7%	i	1.59e-08
COC(=O)CN1CCN(C(c2ccccc2)c2ccccc2)CC1	0.8%	i	-0.6%	i	1e-09
Cc1cccc(Nc2nc(N)nc(CN3CCN(c4ccccc4F)CC3)n2)c1	-0.3%	i	8.7%	i	1e-09
Cc1ccc(S(=O)(=O)c2nc(-c3cccs3)oc2SCC(N)=O)cc1	-0.1%	i	-2.1%[11.4 µM]	i	1.85e-08
Cc1ccc(C)c(NC(=O)CSc2nnc([C@@H]3CCCN3C(=O)OC(C)(C)C)o2)c1	-1.6%	i	?	i	1e-09
CC(=O)OC(C(=O)NCc1ccco1)c1ccncc1 (stereo not given)	2.1%	i	-3.0%	i	1e-09
CCN1CCN(C(=O)c2ccc3c(=O)n(CCC4=CCCCC4)c(=O)[nH]c3c2)CC1	0.4%	i	-0.1%	i	1.15e-08
CC(C)NC(=O)CCCc1cn(C)c2ccccc12	-1.7%	i	13.4%	i	3.44e-08
CCn1cc(C(=O)NCC2CCCO2)c(=O)c2cc(F)c(N3CCN(C)CC3)cc21 (stereo not given)	/	i	/	i	1e-09
Clc1cccc(Cl)c1Cn1cnc2c(N3CCCCCC3)ncnc21	0.7%	i	?	i	5.5e-09
O=C(NCc1ccco1)c1ccccc1NS(=O)(=O)c1cccs1	0.8%	i	9.2%	i	3.35e-08
O=C1c2ccccc2C2NC(=O)C3(CCCCC3)N12 (stereo not given)	-1.0%	i	-2.1%	i	4.29e-08
Cc1ccsc1C(=O)OCC(=O)NCC1CCCO1 (stereo not given)	-1.2%	i	1.7%	i	7.4e-09

Next entries
SMILES	AID923	Resorufin fluor	TSHR ag	A488 autofl	A647 autofl
O=C1CC(N2CCN(Cc3ccc4c(c3)OCO4)CC2)C(=O)N1CCc1ccccc1 (stereo not given)	-0.7%	/	11.8%	/	/
NC(=O)CSc1nnc2n(-c3ccccc3)c(=O)c3c4c(sc3n12)CCCCC4	/	i	/	i	1e-09
CC/C=C\C[C@H]1C(=O)CC[C@@H]1CC(=O)O	-0.1%	i	22.9%	i	2.11e-08
O=C(CCC1CCCC1)Nc1ccon1	0.3%	i	-4.4%	i	7.1e-09
CCOC(=O)c1nnn(-c2nc(N3CCCC3)nc(N3CCCC3)n2)c1-c1ccccc1	1.3%	i	?	i	1e-09
CCCc1cc(=O)n2[nH]c(NCc3ccccc3F)nc2n1	1.9%	i	5.0%	i	2.9e-09
CCOC(=O)c1cc(=O)n2nc(-c3ccccc3F)nc2s1	-0.2%	i	-5.5%	i	1.37e-08
CCCN1C(=O)c2ccc(C(=O)NCc3ccco3)cc2C1=O	0.0%	i	-4.8%	i	1.23e-08
CCN(c1ccccc1)S(=O)(=O)c1ccc2[nH]cc(C(=O)NCCOC)c(=O)c2c1	1.7%	i	-0.4%	i	1.2e-09
CCOC(=O)CSc1nc2sc(C)c(C)c2c(=O)[nH]1	0.5%	i	/	i	1.67e-08

Three entries drawn at random from the list so far, as already listed:
SMILES	AID923	Resorufin fluor	TSHR ag	A488 autofl	A647 autofl
CCOC(=O)c1nnn(-c2nc(N3CCCC3)nc(N3CCCC3)n2)c1-c1ccccc1	1.3%	i	?	i	1e-09
CCOC(=O)c1cc(=O)n2nc(-c3ccccc3F)nc2s1	-0.2%	i	-5.5%	i	1.37e-08
CC/C=C\C[C@H]1C(=O)CC[C@@H]1CC(=O)O	-0.1%	i	22.9%	i	2.11e-08
